BJeLR lethal – MLPCN primary cell-based screen for lethality selective to Ras in HRASV12 cells; 300,000 tested, 0.17% active; BJeLR (HRASV12) viability, CellTiter-Glo ATP luminescence, 48 h; reference of the scale not given here; inhibition, % (test concentration not listed);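 active = replicate mean above 50%; inconclusive = above 50% but judged a plate artefact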;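 also: 50 nL library stock added to about 25 µL; numbers are from one replicate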
Sa ugtP lethal – growth inhibition of ugtP-null S. aureus, primary screen, RN4220 ugtP deletion, OD600; AID 1259309, 2017; 16 h; some inactives read as strong as hits; growth inhibition, % (no concentration beside the values); 330,000 tested, 0.54% active;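 active = z-score under -3 and OD600 up to 0.15 on both plates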;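 also: plate controls were untreated wells for no effect and antibiotic for full effect; wells of about 80 µL received 100 nL stock; the first replicate is given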
PrP UTR inh – inhibition of PrP 5' UTR reporter expression. AID 488862, 2010. 340,000 tested, 0.35% active. inhibition, % (test concentration not listed). cell-based PrP 5' UTR mRNA reporter, plate reader;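 active = every replicate at 50% or more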;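 also: 0 = median of the neutral control wells; tested in H4 reporter cells; numbers are from one replicate; inactives centre near -14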
Mtb hypoxia inh – PubChem AID 1159583 | fluorescence inhibition, % (no concentration beside the values) | M. tuberculosis hypoxia-regulated fluorescent reporter, fluorescence | 300,000 tested, 0.1% active;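 active = 35 to 45% if threefold the growth effect, above 45% if 1.5-fold the growth effect; inactive = the rest, general growth blockers included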;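 also: wells of about 50 µL received 100 nL stock; 0% = vehicle wells and 100% = reference inhibitor wells; whole bacteria with a GFP reporter of the hypoxia response; strong numbers were not always called active; many hits fall short of the cut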
Autofluor counter – counter-screen for toxin protease inhibitors: compound fluorescence; compound autofluorescence counterscreen, microsphere flow cytometry; hits give high values; fluorescence intensity (no concentration beside the values); 360,000 tested, 3.1% active; AID 624483;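 active = at least 3 SD above the mean of all compounds, about 16000 in these data; inconclusive = too few beads counted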;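 also: 100 nL of 1 mM stock went into each well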
Sa RN4220 lethal – growth inhibition of S. aureus RN4220, primary screen, OD600 | 330,000 tested, 0.33% active | inhibition, % (no concentration beside the values) | 16 h | AID 1259311, 2017;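 active = z-score of -3 or lower and OD600 up to 0.18 on both plates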;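 also: plate controls were untreated cells for no effect and reference antibiotic for full effect; stock transfer was 100 nL into about 80 µL; one replicate is shown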
Mtb hypoxia inh growth – second read-out of Mtb hypoxia inh, no call of its own (marks repeat the call); growth inhibition, %; measured here: M. tuberculosis growth (absorbance);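 0% = vehicle and 100% = reference antibiotic; read after six days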
Numbers without * were called inactive; ? = inconclusive; . = not tested or not shown.

#1 O=C(NNC1CC(=O)N(c2cccc(Cl)c2)C1=O)c1cccs1 (stereo not drawn)
#2 CCc1cc(=O)oc2cc(O[C@@H]3O[C@H](CO)[C@@H](O)[C@H](O)[C@H]3O)c(Cl)cc12
#3 C#CC[N+](C)(C)CCCCCCCCC
#4 CCOC(=O)c1ccccc1NC(=O)COC
#5 CCOc1ccc(NC(=O)C2CC(=O)N(CC)C(=Nc3ccc4c(c3)OCO4)S2)cc1 (stereo not drawn)
#6 Cc1ccc(Nc2nc(N)nc(CSc3nccn3C)n2)c(C)c1
#7 COc1ccc(-c2nnc(SCC(=O)NC3CC3)o2)cc1
#8 O=C(O)/C=C/C(=O)Nc1ccc(-n2ccc(C(F)(F)F)n2)cc1
#9 CCCCn1c(N)c(N(CC)C(=O)c2ccc(-c3ccc(Cl)cc3)o2)c(=O)[nH]c1=O
#10 O=C(NC1CCCC1)c1ccc(CS(=O)(=O)c2ccc(Cl)cc2)o1

Screen / compound no.,1,2,3,4,5,6,7,8,9,10
BJeLR lethal,-13.2,-9.9,-6.2,-5.6,0.9,-1.1,.,-1.0,.,-6.1
Sa ugtP lethal,6.4,2.2,21.0,-2.2,-6.9,5.4,1.0,3.3,1.9,1.9
PrP UTR inh,-22.1,-30.3,-17.5,-16.9,-17.7,-50.2,-23.6,1.7,.,-22.0
Mtb hypoxia inh,11.8,-13.6,8.3,-5.5,7.3,.,10.8,1.6,9.8,14.1
Mtb hypoxia inh growth,10.2,3.2,7.0,6.4,4.6,.,7.2,2.1,5.8,4.3
Autofluor counter,9413,3563,2412,3780,9767,5556,4706,5846,5744,4641
Sa RN4220 lethal,5.0,2.1,-1.0,-1.5,-3.1,6.1,1.2,3.1,4.7,3.4

#11 CC1CCCCN1C(=O)C12CCC(C)(C(=NO)C1)C2(C)C (stereo not drawn)
#12 O=C(Nc1ccc([N+](=O)[O-])c(NC(=O)c2cccnc2)c1)c1cccnc1
#13 O=[N+]([O-])c1cc(Cl)cc(/C=N/NC(=S)Nc2ccc(S(=O)(=O)N3CCOCC3)cc2)c1O
#14 COc1ccc(/C=N/NC(=O)c2cccc(OC(F)(F)C(F)F)c2)cc1O
#15 Cc1ccc(S(=O)(=O)Nc2ccc3c(c2)CCC3)cc1C
#16 COC(=O)c1ccc(NS(=O)(=O)c2ccc(-c3cc(C)no3)s2)cc1
#17 COc1cccc(OCCn2cc(C=O)c3ccccc32)c1
#18 Cn1cccc1CNC(=S)Nc1ccccc1Cl
#19 Cc1ccccc1OCCC(=O)OCC(=O)NC1CCCCC1
#20 Cc1cc(C(=O)Cn2nc(C(=O)O)c3ccccc3c2=O)c(C)n1C1CC1

Screen / compound no.,11,12,13,14,15,16,17,18,19,20
BJeLR lethal,.,-2.3,-7.0,8.8,-0.2,0.5,-15.3,21.3,-14.6,-2.8
Sa ugtP lethal,-1.3,6.8,.,.,2.2,14.1,6.8,-4.8,7.7,1.0
PrP UTR inh,.,-10.8,-14.9,-4.4,-16.0,-16.1,-18.3,-26.3,-9.5,-30.8
Mtb hypoxia inh,6.5,2.7,.,.,0.0,10.9,8.6,-1.8,4.9,0.8
Mtb hypoxia inh growth,6.7,-5.0,.,.,1.5,3.8,4.0,-0.8,1.9,-5.9
Autofluor counter,.,3060,5401,2400,2133,4921,3017,4272,5590,3613
Sa RN4220 lethal,4.8,0.1,.,.,-4.0,-0.5,0.9,-3.9,1.8,-0.2

#21 COC(=O)c1ccc(C=NN2CCN(Cc3ccc(Cl)cc3)CC2)cc1
#22 COc1ccc(C(O)P(=O)(OCC(C)C)c2ccc(N(C)C)cc2)c(OC)c1 (stereo not drawn)
#23 Fc1ccc(CSc2nncn2NC/C=C/c2ccccc2)cc1
#24 COC(=O)C1=C(c2cc3ccccc3s2)CC2CCC1N2C(=O)NCC1CC1 (stereo not drawn)
#25 Oc1cccc2cc3cccc(O)c3c(O)c12
#26 O=C(COC(=O)c1ccc(S(=O)(=O)C(F)F)cc1)Nc1ccccc1C(=O)NC1CC1
#27 N#Cc1cc2cc3c(cc2nc1NCCNC(=S)NCCCN1CCOCC1)OCO3
#28 CCn1c(CCC(=O)Nc2cc(F)ccc2C)nc2cc(S(=O)(=O)N(C)C)ccc21
#29 CCCc1cc(C(F)(F)F)c(C#N)c(=O)[nH]1
#30 CCOC(=O)C(=CNc1cc(C)ccc1-n1cccc1)C(=O)OCC

Screen / compound no.,21,22,23,24,25,26,27,28,29,30
BJeLR lethal,.,-9.1,-5.7,.,10.7,.,3.0,-5.2,-1.5,-0.3
Sa ugtP lethal,3.1,3.2,.,3.9,.,2.7,-2.8,-5.4,5.2,-5.0
PrP UTR inh,.,-18.5,-13.3,.,-11.5,10.2,-21.8,-22.6,-96.8,-10.3
Mtb hypoxia inh,-11.3,-4.3,.,8.2,.,4.5,4.7,-1.6,13.5,4.7
Mtb hypoxia inh growth,-10.7,-0.1,.,5.4,.,9.8,2.4,8.1,1.3,-6.0
Autofluor counter,.,3054,2471,.,5345,9009,4256,9281,4136,.
Sa RN4220 lethal,0.8,1.7,.,2.7,.,3.0,6.6,3.0,6.1,-1.4

Full records as entered above.
COC(=O)C1=C(c2cc3ccccc3s2)CC2CCC1N2C(=O)NCC1CC1 (stereo not drawn) in the list: BJeLR lethal: .; Sa ugtP lethal: 3.9; PrP UTR inh: .; Mtb hypoxia inh: 8.2; Mtb hypoxia inh growth: 5.4; Autofluor counter: .; Sa RN4220 lethal: 2.7
O=C(COC(=O)c1ccc(S(=O)(=O)C(F)F)cc1)Nc1ccccc1C(=O)NC1CC1 in the list: BJeLR lethal: .; Sa ugtP lethal: 2.7; PrP UTR inh: 10.2; Mtb hypoxia inh: 4.5; Mtb hypoxia inh growth: 9.8; Autofluor counter: 9009; Sa RN4220 lethal: 3.0

(listing goes on)
#31 CCCSc1ccccc1C(=O)N1CCN(C(=O)c2ccco2)CC1
#32 COc1ccc(C(=O)Nc2ccc(NC(=O)c3cc(OC)c(OC)c(OC)c3)cn2)cc1
#33 CC(=NN1CCN(Cc2cccc3ccccc23)CC1)c1cccnc1
#34 CCCc1ccc(S(=O)(=O)NCCc2ccncc2)cc1
#35 N#Cc1cc(N)ccc1Sc1ccccc1
#36 CCCCN1C(=O)NC(NC(=O)C2CC2)(C(F)(F)F)C1=O (stereo not drawn)
#37 Cc1ccc(S(=O)(=O)NCCc2nnc3ccc(SCc4cccnc4)nn23)cc1
#38 COc1ccc(CNC(=O)COC(=O)Cc2ccsc2)cc1
#39 CC(C)Sc1nnc(CNC(=O)C23CC4CC(CC(C4)C2)C3)n1C1CCCCC1
#40 CC1(C)[N+]([O-])=C2C(=NO)c3ccccc3C2=[N+]([O-])C1(C)C

Screen / compound no.,31,32,33,34,35,36,37,38,39,40
BJeLR lethal,6.1,-16.9,.,14.2,-5.0,-8.1,-0.5,-11.2,-1.1,.
Sa ugtP lethal,15.6,2.5,0.5,0.0,1.5,.,2.6,17.2,-11.3,-1.2
PrP UTR inh,8.2,-14.0,.,1.6,-37.2,-3.6,-19.3,-18.6,-16.0,.
Mtb hypoxia inh,-13.6,-3.7,13.8,.,1.4,.,4.9,13.4,-3.3,11.8
Mtb hypoxia inh growth,-7.8,7.1,3.6,.,-2.8,.,5.0,3.0,0.9,5.7
Autofluor counter,4321,3302,.,4493,?,3300,4041,4582,2609,.
Sa RN4220 lethal,6.0,-2.5,2.6,4.7,3.5,.,0.1,3.0,8.2,-6.1

Some of the entries above, reformatted.
item	Compound	BJeLR lethal	Sa ugtP lethal	PrP UTR inh	Mtb hypoxia inh	Mtb hypoxia inh growth	Autofluor counter	Sa RN4220 lethal
6	Cc1ccc(Nc2nc(N)nc(CSc3nccn3C)n2)c(C)c1	-1.1	5.4	-50.2	.	.	5556	6.1
7	COc1ccc(-c2nnc(SCC(=O)NC3CC3)o2)cc1	.	1.0	-23.6	10.8	7.2	4706	1.2
8	O=C(O)/C=C/C(=O)Nc1ccc(-n2ccc(C(F)(F)F)n2)cc1	-1.0	3.3	1.7	1.6	2.1	5846	3.1

Screens as filed in PubChem BioAssay.
